Cruzain Triton – qHTS Assay for Promiscuous and Specific Inhibitors of Cruzain (with detergent) | Cruzipain (Trypanosoma cruzi), P25779 | purified cruzain, Z-FR-AMC fluorescence, 0.01% Triton | Potency, µM, for the others: max response, negative = inhibition, hits mostly inhibitors | 0.43% of 200,000 active | AID 1478, 2009;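 further: plate controls were neutral wells for no effect and buffer without enzyme for full effect; nearly all actives have a fitted effect of over 40% in size; top concentration of the series not given in the record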
Target sequence (P25779 123-467 limits assumed): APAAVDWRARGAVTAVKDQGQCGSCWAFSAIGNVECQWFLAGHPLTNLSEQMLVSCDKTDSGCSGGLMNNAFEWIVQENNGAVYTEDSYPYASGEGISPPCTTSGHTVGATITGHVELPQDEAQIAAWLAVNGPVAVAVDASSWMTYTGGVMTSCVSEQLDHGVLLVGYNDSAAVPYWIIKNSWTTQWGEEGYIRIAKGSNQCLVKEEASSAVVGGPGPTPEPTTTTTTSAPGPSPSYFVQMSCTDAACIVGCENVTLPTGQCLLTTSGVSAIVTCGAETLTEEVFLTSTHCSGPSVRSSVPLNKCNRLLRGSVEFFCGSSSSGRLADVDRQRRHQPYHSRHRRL
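Enzyme 1.5 nM, Z-FR-AMC 2 uM, NaOAc 100 mM pH 5.5, DTT 5 mM, Triton X-100 0.01%; 15 min RT compound preincubation; kinetic ex360/em450, 60 s delta.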
SARS PLpro yeast – qHTS of Yeast-based Assay for SARS-CoV PLP | 0.19% of 330,000 active | S. cerevisiae expressing SARS-CoV PLpro, growth rescue; control for the full effect not named in the record | Potency, µM (top dose mostly 32.9 µM), for inactives: top-dose activity, positive = growth rescue; active means well fitted rising curve with a large enough effect; inconclusive means small, poorly fitted or top-dose-only effect; inactive means no such curve, though single readings can be large or run the other way; further: 0% is about no effect; nearly all actives have a fitted effect of over 55% in size; growth read by luminescence after 48 h
MARV entry inh – qHTS for inhibitors of binding or entry into cells for Marburg Virus. Marburg virus pseudotyped entry inhibition, cell reporter; control for the full effect not named in the record; about a third of the inactives were read at about 46 µM. Potency, µM (top dose mostly 37.8 µM), inactives show at the top dose activity change, negative = inhibition, most hits filed as inhibitors. 1.8% of 300,000 active. AID 540276, 2011; active = well fitted inhibition curve with a large enough effect; inconclusive = small, poorly fitted or top-dose-only effect, or effect the other way; inactive = flat fitted curve, though single readings scatter; tested in HEK293 cells; about a fifth of its hits are not listed in these tables; further: on the % scale 0 is the no-effect control and ±100 the full control effect; luciferase read-out
NS1 function inh – qHTS Assay for Inhibitors of Influenza NS1 Protein Function; S. cerevisiae slowed by influenza A NS1, growth recovery by OD600; Potency, µM (series often up to 46.1 µM), without a hit: top-dose activity, positive = more growth; 0.4% of 270,000 active; AID 2326, 2010; active means well fitted rising curve with a large enough effect; inconclusive means small, poorly fitted or top-dose-only effect; inactive means no such curve, though single readings can be large or run the other way; further: nearly all actives have a fitted effect of over 50% in size
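A cell-based growth assay was used: compounds that relieve NS1-induced slow growth of budding yeast raise OD600. Assay medium was yeast nitrogen base with ammonium sulphate and -URA supplement, pH 6.0, with 2% galactose.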
RE007 growth inh – qHTS Assay for Inhibitors of the HIV-1 protein Vpr; Potency, µM (doses to about 92.2 µM), for the others: top-dose activity change, negative = less growth; 0.21% of 360,000 active; S. pombe RE007 Vpr strain, BacTiter-Glo ATP luminescence, 24 h; control for the full effect not named in the record; AID 651644, 2012; active = well fitted falling curve with a large enough effect; inconclusive = small, poorly fitted or top-dose-only effect; inactive = no such curve, though single readings can be large or run the other way;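 further: on the % scale 0 is the no-effect control and ±100 the full control effect; nearly all actives have a fitted effect of over 50% in size; the assay follows cell death caused by Vpr and the record does not say whether a fall means rescue or toxicity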
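Fission yeast RE007 carrying one integrated HIV-1 vpr copy, seeded at OD 0.01 in PMG+AL medium with 23 nL pinned compound. Grown 24 h at 30 degrees; viability read by BacTiter-Glo luminescence after 5 min.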
Cruzain noTriton – qHTS Assay for Promiscuous and Specific Inhibitors of Cruzain (without detergent). Cruzipain (Trypanosoma cruzi), P25779. AID 1476, 2009. purified cruzain, Z-FR-AMC fluorescence, no detergent. 2.3% of 200,000 active. Potency, µM, inactives show max response, negative = inhibition, actives largely listed as inhibitors;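 further: plate controls were enzyme without inhibitor for no effect and buffer without enzyme for full effect; nearly all actives have a fitted effect of over 40% in size; top concentration of the series not given in the record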
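Purified cruzain at 1.5 nM, pre-incubated 15 min with compound at room temperature in 100 mM sodium acetate pH 5.5, 5 mM DTT, 0.00005% Triton X-100. Reaction started with 2 uM Z-FR-AMC; AMC fluorescence increase over 60 s gives rate.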
2A StopGo – High Throughput Screening for Foot and Mouth Disease Virus Antivirals; human cells with a luciferase reporter of 2A StopGo recoding; control for the full effect not named in the record; Potency, µM (highest dose often 57.9 µM), for the others: at the highest dose signal change, negative = less light; 1.2% of 410,000 active; active = well fitted falling curve with a large enough effect; inconclusive = small, poorly fitted or top-dose-only effect; inactive = no such curve, though single readings can be large or run the other way; tested in HEK293T cells; further: on the % scale 0 is the no-effect control and ±100 the full control effect; nearly all actives have a fitted effect of over 45% in size; luciferase light after 4 h
LASV entry inh – qHTS for Inhibitors of binding or entry into cells for Lassa Virus; Lassa virus pseudotype entry inhibition, cell reporter; control for the full effect not named in the record; 1.2% of 300,000 active; Potency, µM (highest dose often 37.9 µM), inactives show top-dose activity change, negative = inhibition, hits mostly inhibitors; active means well fitted inhibition curve with a large enough effect; inconclusive means small, poorly fitted or top-dose-only effect, or effect the other way; inactive means flat fitted curve, though single readings scatter; tested in HEK293 cells; further: on the % scale 0 is the no-effect control and ±100 the full control effect; nearly all actives have a fitted effect of over 50% in size; luciferase read-out
Starred values were filed as active, the others as inactive; [ ] = remark or other dose. Unless noted, the call rests on the fitted dose curve; in most records, active means well fitted curve in the direction sought with a large enough effect; inconclusive means small, poorly fitted or top-dose-only effect, or another doubt; inactive means no such curve, though single readings can be large; an effect the other way counts as inactive or inconclusive. Potency means the concentration at half of the fitted maximal effect. Rows are unselected; any-hit rate near 4.7%.

For COc1ccccc1Nc1nc(N)nc(CN2CCCCCC2)n1 the results were Cruzain Triton 0.2%, SARS PLpro yeast 3%, MARV entry inh 5%, NS1 function inh -3%, RE007 growth inh 2%, Cruzain noTriton -22%, 2A StopGo 11% and LASV entry inh -7%.
For Cc1cc(O)c(C=Nc2cccc(Cl)c2)c(=O)o1 the results were Cruzain Triton 0.1%, SARS PLpro yeast -8%, MARV entry inh 1%, NS1 function inh -8%, RE007 growth inh -4%, Cruzain noTriton 8%, 2A StopGo -14% and LASV entry inh -2%.
For CCC1(c2ccc(OC)cc2)NC(=O)N(CC(=O)c2ccc3c(c2)OCCO3)C1=O (stereo not given) the results were SARS PLpro yeast 1%, MARV entry inh 3%, RE007 growth inh 12%, 2A StopGo -18% and LASV entry inh 2%.
For N#Cc1cc([N+](=O)[O-])ccc1NC(=O)COC(=O)CN1C(=O)C2CCCCC2C1=O (stereo not given) the results were SARS PLpro yeast 16%, MARV entry inh 7%, RE007 growth inh 0%, 2A StopGo -25% and LASV entry inh inconclusive.
For COC(=O)[C@H](C)NC(=O)Nc1ccccc1F the results were Cruzain Triton 0.7%, SARS PLpro yeast -5%, MARV entry inh -4%, NS1 function inh -9%, RE007 growth inh 14%, Cruzain noTriton -4%, 2A StopGo 2% and LASV entry inh -1%.
`O=C(NC1CCCC1)C1CCN(c2cnccn2)CC1` gave SARS PLpro yeast 0%, MARV entry inh 20%[46.1 µM], NS1 function inh 9%, RE007 growth inh -14%, 2A StopGo 10% and LASV entry inh 3%[46.1 µM].
`CCOC(=O)c1c(C)[nH]c(C(=O)NCCN2CCOCC2)c1C` gave SARS PLpro yeast -2%, MARV entry inh 9%[46.1 µM], NS1 function inh -11%, RE007 growth inh 26%, 2A StopGo 7% and LASV entry inh -1%.
Screening CCN(CCn1cccn1)C(=O)CC1C(=O)NCCN1Cc1ccc(F)cc1 (stereo not given) returned SARS PLpro yeast -1%, MARV entry inh -2%[46.1 µM], NS1 function inh 1%, RE007 growth inh -16%, 2A StopGo 1% and LASV entry inh -16%.
Screening Cc1csc(NC(=O)CSc2ncn(-c3ccccc3)n2)n1 returned Cruzain Triton 0.3%, SARS PLpro yeast -8%, MARV entry inh -5%, NS1 function inh -67%, RE007 growth inh -8%, Cruzain noTriton -4%, 2A StopGo -24% and LASV entry inh -9%.
Screening Clc1ccc(-n2nnnc2-c2cnc(-c3ccncc3)nc2-c2cccs2)cc1 returned Cruzain Triton -4.4%, SARS PLpro yeast -25%, MARV entry inh inconclusive, NS1 function inh -5%, RE007 growth inh -27%, Cruzain noTriton 15%, 2A StopGo -2% and LASV entry inh inconclusive.
Screening CCOc1ccc(C(=O)Nc2cc3c(cc2N2CCCC2)n(CC)c(=O)n3CC)cc1OCC returned SARS PLpro yeast -1%, NS1 function inh -4%, RE007 growth inh 5% and 2A StopGo inconclusive.
`O=C(Cc1ccc(F)cc1)N1CCC(N2CCC(C(=O)N3CCOCC3)CC2)CC1` gave SARS PLpro yeast 0%, MARV entry inh 18%[46.1 µM], NS1 function inh 0%, RE007 growth inh 3%, 2A StopGo -13% and LASV entry inh 0%[46.1 µM].
`CC(C)NS(=O)(=O)c1ccc(CCC(=O)Nc2ccc3c(c2)OCCO3)cc1` gave Cruzain Triton -2.7%, SARS PLpro yeast 22%, MARV entry inh inconclusive, NS1 function inh -1%, RE007 growth inh -6%, Cruzain noTriton 2%, 2A StopGo 6% and LASV entry inh -9%.
For CCN1CCN(C(=O)C2CCN(C(=O)c3cc4sccc4n3CC)CC2)CC1 the results were Cruzain Triton 3.0%, SARS PLpro yeast 4%, NS1 function inh 5%, RE007 growth inh -16%, Cruzain noTriton 2% and 2A StopGo -32%.
`CCCNC(=O)C1CC(=O)N(c2ccc(OCC(=O)Nc3cc(C)cc(C)c3)cc2)C1` (stereo not given) gave Cruzain Triton 2.0%, SARS PLpro yeast -4%, MARV entry inh -1%, NS1 function inh 5%, RE007 growth inh -6%, Cruzain noTriton 11% and 2A StopGo -8%.
Screening CCOc1ccc(NC(=O)CN(C)C(=O)CCNC(=O)c2ccc(Br)cc2)cc1OCC returned SARS PLpro yeast 1%, MARV entry inh inconclusive, RE007 growth inh 2%, 2A StopGo 7% and LASV entry inh -2%.
`CC(C)c1ccc(-c2nnc3n(CCc4ccccc4)c(=O)c4ccccc4n23)cc1` gave Cruzain Triton -4.8%, MARV entry inh 5%[46.1 µM], Cruzain noTriton -8%, 2A StopGo 28µM* and LASV entry inh -2%[46.1 µM].
Screening Cc1ccc(C)c(S(=O)(=O)N2CCN(C(=O)C3CCN(C(=O)c4ccc(F)cc4)CC3)CC2)c1 returned SARS PLpro yeast -1%, MARV entry inh -20%, RE007 growth inh -3%, 2A StopGo 0% and LASV entry inh -2%.
COc1ccc(CNC(=O)c2cc3c(=O)n4cccc(C)c4nc3s2)cc1 was read as Cruzain Triton -1.8%, MARV entry inh 1%[46.1 µM], Cruzain noTriton -2%, 2A StopGo -2% and LASV entry inh 13%[46.1 µM].
CCc1ccc(-c2nc(CS(=O)CC(=O)NCc3ccc(F)cc3)c(C)o2)cc1 (stereo not given) was read as Cruzain Triton -3.1%, Cruzain noTriton 17%, 2A StopGo 3% and LASV entry inh 13%[46.1 µM].
For Nc1ccccc1SCC(=O)Nc1ccc(N2CCOCC2)cc1 the results were Cruzain Triton 2.0%, SARS PLpro yeast 0%, MARV entry inh 2%[46.1 µM], NS1 function inh 6%, RE007 growth inh -2%, Cruzain noTriton -7%, 2A StopGo 30%[activator] and LASV entry inh 1%.
Screening CC(=O)Nc1ccc(S(=O)(=O)N2CCSC2)cc1 returned SARS PLpro yeast 0%, MARV entry inh -18%[46.1 µM], NS1 function inh 2%, RE007 growth inh 6%, 2A StopGo -7% and LASV entry inh inconclusive.
Screening COc1cc2c(cc1OC)CN(CC(=O)Nc1ccc3c(c1)OC(F)(F)O3)CC2 returned Cruzain Triton 0.1%, SARS PLpro yeast -2%, MARV entry inh -6%, NS1 function inh -10%, RE007 growth inh 2%, Cruzain noTriton -1%, 2A StopGo -14% and LASV entry inh 8%.
`Cc1ccc2nc3c(c(C(=O)O)c2c1)CCC3` gave Cruzain Triton 2.5%, SARS PLpro yeast -1%, MARV entry inh 19%, NS1 function inh 3%, RE007 growth inh 1%, Cruzain noTriton -1% and LASV entry inh 11%.
`CC1CCN(CCCOc2ccc(Cl)cc2Br)CC1` gave SARS PLpro yeast -4%, MARV entry inh inconclusive, RE007 growth inh -8%, 2A StopGo 5% and LASV entry inh -15%[46.1 µM].
Screening CCN=C1S/C(=C\c2ccc(Sc3ccc(Cl)cc3)o2)C(=O)N1CC returned Cruzain Triton -1.3%, SARS PLpro yeast 6%, MARV entry inh -4%, NS1 function inh 11%, RE007 growth inh 1%, Cruzain noTriton -8%, 2A StopGo -6% and LASV entry inh -16%.
For c1coc(-c2ncc[nH]2)c1 the results were Cruzain Triton 4.6%, SARS PLpro yeast -16%, MARV entry inh 21%, NS1 function inh 0%, RE007 growth inh 0%, Cruzain noTriton 3%, 2A StopGo 0% and LASV entry inh -2%.
Screening CC(=O)Nc1ccccc1-c1nc2ccccc2n(C(C)C(=O)Nc2cccc(C)c2C)c1=O (stereo not given) returned Cruzain Triton -0.6%, MARV entry inh -1%[46.1 µM], Cruzain noTriton -6%, 2A StopGo -15% and LASV entry inh 1%[46.1 µM].
`CCOC(=O)C(C)Sc1nnc2cc(C)c3ccccc3n12` (stereo not given) gave Cruzain Triton -4.6%, MARV entry inh 13%[46.1 µM], Cruzain noTriton -12%, 2A StopGo -9% and LASV entry inh 0%[46.1 µM].
N#CC1=C(N)OC2=C(C(=O)CCC2)C1c1ccsc1 (stereo not given) was read as Cruzain Triton 0.8%, SARS PLpro yeast -7%, MARV entry inh -5%, NS1 function inh 7%, RE007 growth inh 2%, Cruzain noTriton -9%, 2A StopGo 11% and LASV entry inh -9%.
O=C(COc1ccc(Cl)cc1Cl)NNC(=S)NCc1ccco1 was read as SARS PLpro yeast -1%, NS1 function inh -9%, RE007 growth inh -8% and 2A StopGo -1%.
Screening Cc1c(NC(=O)NC(=O)c2ccc(F)cc2)c(=O)n(-c2ccccc2)n1C returned Cruzain Triton 2.6%, SARS PLpro yeast 1%, MARV entry inh 21%, NS1 function inh -2%, RE007 growth inh -1%, Cruzain noTriton 4%, 2A StopGo -16% and LASV entry inh 20%.
`CCOC(=O)c1c(NC(=O)CN2CCOCC2)sc2c1CCCC2=O` gave Cruzain Triton -8.1%, SARS PLpro yeast inconclusive, MARV entry inh 15%, NS1 function inh -10%, RE007 growth inh 10%, Cruzain noTriton 9%, 2A StopGo -8% and LASV entry inh -13%.
For COC(=O)c1ccccc1NC(=O)Oc1ccc(F)cc1 the results were Cruzain Triton 1.8%, SARS PLpro yeast 3%, MARV entry inh 12%, NS1 function inh -6%, RE007 growth inh 6%, Cruzain noTriton -5%, 2A StopGo 24% and LASV entry inh 2%.
CCCCNCc1nc2ccccc2c(=O)[nH]1 was read as SARS PLpro yeast 0%, MARV entry inh 3%[46.1 µM], RE007 growth inh 11%, 2A StopGo 1% and LASV entry inh 14%.
`CCOC(=O)Cc1csc(NC(=O)CSc2nnc(C)n2C)n1` gave Cruzain Triton -0.9%, SARS PLpro yeast -1%, MARV entry inh 8%[46.1 µM], NS1 function inh 2%, RE007 growth inh -8%, Cruzain noTriton -6%, 2A StopGo -13% and LASV entry inh -4%.
Nc1ncnc2c1ncn2[C@@H]1O[C@H](CNC(=O)[C@H](N)Cc2cscn2)[C@@H](O)[C@H]1O was read as SARS PLpro yeast 1%, MARV entry inh 4%, RE007 growth inh -2% and 2A StopGo -6%.
For CCOC(=O)C1CCN(C(=O)COC(=O)c2ccc3[nH]c4c(c3c2)CCCC4)CC1 the results were SARS PLpro yeast inconclusive, MARV entry inh inconclusive, RE007 growth inh -19%, 2A StopGo -27% and LASV entry inh inconclusive.

Source: PubChem
